CapD inh: blocks the Bacillus anthracis CapD enzyme; AID 492967; hit rate 0.23% among 140,000; z-score (concentration not given with the values); purified CapD enzyme, fluorescence intensity read-out; stronger effect = lower value; some hits fall short of the stated cut;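 active = z-score under -4 in either of two replicates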;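 note: stock transfer was 100 nL into about 40 µL; score is relative to mean and spread of the plate; one replicate is shown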
AID504770: growth inhibitors of E. coli YBA685 in a screen for V. cholerae RctB (chromosome II replication) inhibitors | E. coli YBA685 rctB-dependent plasmid, OD600 growth, 3 h; stronger effect = lower value | z-score (concentration not given with the values) | hit rate 0.27% among 130,000;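 active = z-score under -2 on both plates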;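 note: wells of about 30 µL received 100 nL stock; score is relative to mean and SD of the test wells; the first replicate is given; strong numbers were not always called active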
Starred values were filed as active, the others as inactive; · = not tested or not shown.

SMILES	AID504770	CapD inh
Brc1ccc2[nH]cc(-c3nnc4ccc5ccccc5n34)c2c1	·	-0.26
CCOC(=O)C1=C(O)/C(=C/c2ccc(OCC)cc2)SC1=Nc1ccccc1	·	-0.61
O=C(CN1CCCC1)N1N=C(c2cccs2)CC1c1cccs1 (stereo unspecified)	-0.05	·
O=C(O)c1ccccc1-n1cccc1	·	1.8
O=C(CSc1nc2ccccc2nc1Cc1cccc([N+](=O)[O-])c1)NC1CCCCC1	·	-0.14
CC1(C)Cc2cccc(C(=O)Nc3ccc(S(N)(=O)=O)cc3)c2O1	1.4	1.4
COc1cccc(C(=O)CN2C(=O)C(C)(C)Oc3ccc(C(=O)N4CCOCC4)cc32)c1	-0.5	·
CC(=O)N[C@H]1[C@H](Oc2nc3ccccc3o2)O[C@H](CO)[C@@H](O)[C@@H]1O	-0.9	-0.78
CC1(C)CC(=O)C=C(NC(=O)Nc2ccccc2)C1	-1	0.03
O=C(O)CCc1nnc2n(Cc3ccccc3Cl)c(=O)c3ccccc3n12	-0.15	0.71
CC1CN(CCOc2ccccc2)CC(C)O1 (stereo unspecified)	1.6	-0.24
CCCC1=C(C(=O)OCC)C2(C(=O)Nc3ccc(Cl)cc32)C(C#N)=C(N)O1 (stereo unspecified)	·	-0.73
O=C1c2ccccc2-c2nnc(-c3ccc(Cl)cc3Cl)cc21	·	-0.29
O=C(NCc1ccccc1)C1CCN(C(=O)N2CCOc3ccccc32)CC1	0	0.45
Cc1cc(S(N)(=O)=O)c(Cl)cc1Cl	·	-0.035
O=C(CSc1ncn(-c2ccccc2)n1)c1ccc(Cl)cc1	-0.95	·
O=C(CCSCc1cnn(-c2ccccc2)c1-n1cccc1)NCc1ccc(F)cc1	-0.5	-0.08
CC(Sc1nnc(-c2ccncc2)n1C)c1ccccc1Cl (stereo unspecified)	-0.85	·
CCOc1cc(Br)c(N2C(=NC(C)=O)SC3CS(=O)(=O)CC32)cc1OCC (stereo unspecified)	-0.15	1.1
CCCCN(CCCC)CCC(O)c1cc2c(Cl)cc(Cl)cc2c2cc(C(F)(F)F)ccc12 (stereo unspecified)	·	0.02
CCOC(=O)c1cc(-c2csc(-c3ccc(Cl)cc3)n2)on1	-0.15	1.5
COc1ccc(N2C(=O)C3C4c5ccccc5C(C=Nc5ccccc5C)(c5ccccc54)C3C2=O)cc1 (stereo unspecified)	·	-0.85
O=C(OCc1cnc(Cl)s1)c1ccccc1Cl	-2.2	-0.18
COC(=O)C(NC(=O)C(Cc1c[nH]c2ccccc12)NC(=O)C(Cc1ccccc1)NC(=O)OC(C)(C)C)C(C)C (stereo unspecified)	·	-0.01
O=C1NC(c2ccccc2)C(C(=O)c2ccco2)=C1O (stereo unspecified)	-0.5	-2.8
CCOC(=O)C1=C(C)NC2=C(C(=O)C(C(=O)OCC)C(c3ccc(OC)cc3)C2)C1c1sccc1C (stereo unspecified)	·	1.7
CC(C)Sc1cc(C#N)c2cc(Br)ccc2n1	1.1	0.34
O=C(NC1CCCC1)c1ccc2nc3[nH]c4ccccc4c3nc2c1	·	1.7
FC(F)(F)COc1ccc(OCC(F)(F)F)c(-c2ccn[nH]2)c1	0.6	0.73
O=C(c1cccc(C(=O)N2CCc3ccccc32)c1)N1CCc2ccccc21	-0.75	-0.62
O=C(Cc1ccc(S(=O)(=O)N2CCOCC2)s1)Nc1ccc2ccccc2c1	0.05	·
CCOC(=O)c1sc2nc(CC(=O)OC)nc(N3CCN(c4ccccc4)CC3)c2c1C	·	0.055
CCN(CC)c1nc(N(C)C)ncc1S(=O)(=O)c1ccc(Cl)cc1	·	0.1
O=c1[nH]c2ccc(Br)cc2c(-c2ccccc2)c1N=Cc1ccccc1O	-0.3	0.48
Cc1ccc(CS(=O)(=O)c2ccc(C(F)(F)F)cn2)cc1	-0.9	0.18
O=C(O)Cn1nc(-c2ccccc2)cc1-c1ccccc1	0.7	0.02
Cn1cc(Cl)c(-c2nc(-c3ccc(Cl)cc3)cs2)n1	-0.2	0.44
CCOc1nc2c(c(-c3ccco3)c1C#N)Cc1ccccc1-2	-1.1	37
O=C(Cc1ccc(Cl)cc1)c1c[nH]c(C(=O)NCCCN2CCOCC2)c1	·	-0.45
COc1ccc(-c2nnc(SCC(=O)Nc3ccccc3OC)nc2-c2ccc(OC)cc2)cc1	·	-0.09
CCCCOc1cccc(C(=O)Nc2cc(-c3nc4ncccc4o3)ccc2Cl)c1	·	0.76
Cc1cccc(N2C(=O)N(c3cccc(Cl)c3)C3CS(=O)(=O)CC32)c1 (stereo unspecified)	-0.6	2.2
CCOC(=O)c1cc(-c2ccc(OC)c(S(=O)(=O)Nc3ccc(OC)cc3)c2)on1	0.8	-0.14
CCCNC(=O)c1ccc2c(c1)sc1nc(-c3ccccc3)cn12	0	2.3
CCc1nnc(NC(=O)c2nn(-c3ccccc3)nc2C)s1	·	0.32
COC(=O)c1nnn(-c2nonc2N)c1CN1CCC(C)CC1	·	0.32
Cc1cccc[n+]1C/C=C\c1ccccc1	1.9	0.27
O=[N+]([O-])c1cc(/C=N/Nc2ccccn2)cs1	·	-0.68
CO/N=C1\CC(C)(C)Cc2c(-c3ccn(C(C)=O)n3)sc(SC)c21	2.1	-0.045
CCSc1nnc(NC(=O)C(Cc2ccccc2)NS(=O)(=O)c2cccc3nsnc23)s1 (stereo unspecified)	3.3	-0.57
COc1c2ccoc2nc2c(OC)c(OC(C)=O)ccc12	-0.7	37
O=C(NCc1ccccc1)C1CCCN(C(=O)Nc2ccccc2)C1 (stereo unspecified)	2	·
CCOc1ccc(OCC)c(NC(=O)CC2Oc3ccccc3NC2=O)c1 (stereo unspecified)	-0.75	-1.1
CC(C)C1C(C#N)=C(N)OC2=C1C(=O)CC(C)(C)C2 (stereo unspecified)	1.6	-0.35
N#C/C(=C\c1ccccc1)c1nc2ccccc2[nH]1	·	11
CN(C)c1ccc(NC(=O)CSc2nc3ccncc3[nH]2)cc1	-0.2	-1.1

(next part)
SMILES	AID504770	CapD inh
CCN1CCCC1CNC(=O)c1cc2c(=O)oc3ccc(C)cc3c2s1 (stereo unspecified)	-0.9	0.99
Cc1cnc(C(=O)Nc2ccc(OC(F)F)c(Cl)c2)cn1	0.45	·
Cc1ccc(S(=O)(=O)C2(C(=O)NC(C)c3ccccc3)CC2)cc1 (stereo unspecified)	0.35	0.42
O=c1c(-c2ccc3ccccc3n2)coc2cc(O)ccc12	0.6	·
CCOC(=O)c1c(C)[nH]c(C)c1C(=O)COc1ccc(C#N)cc1	-0.25	·
CC12CCC(=O)N1C1CCCCC1N2 (stereo unspecified)	-0.6	·
COc1ccc(C(=O)CSc2nc(=O)n3cc(C)ccc3n2)cc1	-0.55	·
Cc1ccc(NS(=O)(=O)c2ccccc2)cc1	1.8	·
Clc1nc2ccccc2n2cnnc12	0.45	·
C=COc1ccc(N2C(=O)c3ccccc3OC2C)cc1 (stereo unspecified)	-0.25	-0.58
CCN(CC)C(=O)c1cc(-c2ccccc2)on1	0	·
O=c1c2ccccc2c(-c2ccc(F)cc2)nn1-c1cc(Cl)ccc1[N+](=O)[O-]	·	-0.16
CN(C)c1ccc(N=Cc2c(O)ccc3ccccc23)cc1	-0.15	-0.015
CCc1cc2c(C)cc(=O)oc2cc1OCC(=O)Nc1cccc(C)c1	·	32
CC(C)NC(=O)CN1CCN(S(=O)(=O)c2cc(Cl)ccc2Cl)CC1	·	-0.36
N/C(CS(=O)(=O)c1ccccc1)=N\OC(=O)c1ccccc1C(F)(F)F	·	-0.34
CS/C(NCc1cccs1)=C(\C#N)S(=O)(=O)c1ccc(Cl)cc1	-0.15	0.29
O=C(O)c1ccc(NCCC(=O)c2ccccc2)cc1	-0.45	-0.035
Cc1ccccc1NC(=O)CC1Nc2ccccc2NC1=O (stereo unspecified)	-1.3	0.47
COc1ccccc1NC(=O)C1=C(C)NC(SCC(=O)Nc2ccc(C)c(C)c2)=C(C#N)C1c1ccccc1 (stereo unspecified)	·	-0.38
Cc1ccc(-n2c(C)cc(P(=S)(N3CCOCC3)N3CCOCC3)c2C)c(C)c1	-0.3	·
CN1C(=O)/C(=C/c2ccc(SCc3ccccc3)o2)SC1=S	-0.7	-0.7
O=C(Cn1ccccc1=O)Nc1ccc2c(c1)OC1(CCCC1)O2	1.7	·
CNC(=S)NNC(=O)Cn1nc(C)c(Br)c1C	·	-0.35
Cc1cccc(C2(c3cccc(C)c3)CC2C(=O)Nc2ccc(C#N)cc2)c1 (stereo unspecified)	·	-0.37
O=C(Oc1ccc(C2Oc3ccccc3C3CC(c4ccc(Br)cc4)=NN32)cc1)c1ccc(Br)cc1 (stereo unspecified)	·	0.39
Cc1ccc(C2(C)CC(C)(C)N(C(=O)CN3CCOCC3)c3ccccc32)cc1 (stereo unspecified)	·	0.45
O=C(NC1CCCC1)c1ccc(NC(=O)C2CCCO2)cc1 (stereo unspecified)	-1.1	0.49
CN1CCCc2cc(/C=C3\Cc4ccccc4C3=O)ccc21	0.75	-1.3
CCOC(=O)c1c(NC(=O)c2ccc(OC)c(S(=O)(=O)N3CCOCC3)c2)sc2c1CCCC2	·	-1.2
CCN(CC)C/C=C/c1c(F)c(F)c(NCCOC)c(F)c1F	-0.7	2.1
Cc1cc(OC(CN(C)C)CN(C)C)nc2ccccc12	-0.3	0.5

Seven compounds picked at random from the list so far, as already listed:
SMILES	AID504770	CapD inh
CCN(CC)C/C=C/c1c(F)c(F)c(NCCOC)c(F)c1F	-0.7	2.1
Cc1cc(OC(CN(C)C)CN(C)C)nc2ccccc12	-0.3	0.5
Cc1cccc(C2(c3cccc(C)c3)CC2C(=O)Nc2ccc(C#N)cc2)c1 (stereo unspecified)	·	-0.37
CCOC(=O)c1c(NC(=O)c2ccc(OC)c(S(=O)(=O)N3CCOCC3)c2)sc2c1CCCC2	·	-1.2
O=C(NC1CCCC1)c1ccc(NC(=O)C2CCCO2)cc1 (stereo unspecified)	-1.1	0.49
Cc1ccc(C2(C)CC(C)(C)N(C(=O)CN3CCOCC3)c3ccccc32)cc1 (stereo unspecified)	·	0.45
O=C(Oc1ccc(C2Oc3ccccc3C3CC(c4ccc(Br)cc4)=NN32)cc1)c1ccc(Br)cc1 (stereo unspecified)	·	0.39

Carrying on.
SMILES	AID504770	CapD inh
COc1ccc(NC(=O)CC2ON(C)C(=O)N2c2ccc(Cl)cc2)cc1 (stereo unspecified)	·	-0.77
Cc1cc(C(=O)CN2CC(=O)Nc3ccccc32)c(C)n1-c1c(C)n(C)n(-c2ccccc2)c1=O	-0.15	·
Nc1c(C(=O)O)ccc2c1C(=O)c1ccccc1C2=O	·	0.36
O=C(Cc1ccccc1)Nc1nnc(SCc2cccc(F)c2)s1	-0.35	0.46
CCCC(=O)N1CCN(c2nc(Cc3ccccc3)c3c(c2C#N)CC(C)(C)OC3)CC1	0.3	-0.39
Cc1cc(-c2csc(N)n2)c(C)n1C(C)C	-0.3	·
O=C(Nc1c(-c2ccccc2)nc2ccc(Cl)cn12)c1ccco1	·	0.55
O=C(O)CCc1nnc2ccc(N3CCCC3)nn12	-0.05	-0.72
Cc1ccccc1N1C(=O)NC(=O)C(CCc2ccncc2)(Cc2ccc3c(c2)OCO3)C1=O (stereo unspecified)	0.35	-0.075
CC(C(=O)OCC(=O)c1ccccc1)N1C(=O)c2ccccc2C1=O (stereo unspecified)	0.65	-0.27
O=S(=O)(Nc1nc2ccccc2nc1NCCN1CCOCC1)c1ccc2c(c1)OCCO2	-0.65	·
O=C(CSc1nc2ccc(Br)cc2c(=O)n1-c1ccccc1)NCc1ccco1	0.35	0.58
COc1cc2c(cc1OC)CC(C)(C)N(C(=O)c1ccccc1)C2	-0.55	-0.16
Cc1ccccc1NC(=O)CSC1=NC(=O)CC(=O)N1Cc1ccccc1	-0.35	·
CC(C)Oc1ccccc1/C=N/O	1.3	·
Cc1cc(NC(=O)/C(C#N)=C/c2sc(N3CCOCC3)nc2-c2ccccc2)n(-c2ccccc2)n1	-0.25	·
CC1CCC(NS(=O)(=O)c2ccc3c(c2)CCN3C(=O)CCCC(=O)O)CC1 (stereo unspecified)	-0.5	-0.12
Fc1ccc(N2CCN(CCCNc3nc(-c4ccccc4F)no3)CC2)cc1	0.85	-0.28
CC(C)/C=C/C1=CC2=C(C1)Cc1ccccc12	·	-1.2
NC(=O)C1CCN(Cc2c(O)ccc3cc(Br)ccc23)CC1	0.35	·
CCOc1cc2[nH]c(=S)n(CCCC(=O)N3CCCCCC3)c(=O)c2cc1OCC	1.7	-1.4
O=S(=O)(Cc1nc(-c2ccccc2Cl)cs1)c1cccs1	-1.1	-0.86
COc1cc(C(=O)NCc2nnc(SCC(=O)Nc3cc(C(F)(F)F)ccc3Cl)o2)cc(OC)c1OC	-0.9	-0.16
COc1cc(OC)nc(COc2ccc(C(=O)O)cc2)n1	·	-0.54
OCCN=c1cc(-c2ccccc2)oc2ccc(Cl)cc12	-1.3	-0.71
COc1ccc(Cl)cc1NC(=O)CSc1nc2nccnc2c(=O)n1Cc1ccc(C)cc1	-1.4	-0.48
CC1=CN2C(=N)/C(=C/c3cc(C)n(Cc4ccccc4)c3C)C(=O)N=C2S1	-0.15	7.6
CCOc1cc2c(cc1OCC)C1C(C(=O)NCCC(C)C)c3ccccc3C(=O)N1CC2 (stereo unspecified)	-2.9*	-1.1
Cc1cc(C)n2nc(CNC(=O)Nc3ccccc3Cl)nc2n1	1.2	0.11
C=C1CC[C@@H](O)C/C1=C/C=C1\CCC[C@]2(C)[C@@H]([C@H](C)/C=C/[C@@H](C)C(C)C)CC[C@@H]12	·	-0.21
